Assay outcomes: PubChem, ICCB-Longwood Screening Facility, Harvard Medical School
VACV E9 pol inh – inhibitors of vaccinia virus processive DNA synthesis (E9 polymerase); in vitro processive DNA synthesis, absorbance read-out; stronger effect = lower value; some inactives read as strong as hits; normalized absorbance, % (concentration not given with the values); 46,000 tested, 0.94% active; AID 493162;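 active = replicate mean up to 90% and picked by the depositor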;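 note: 100% = median of the test wells of a plate; 100 nL library stock went into each well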
* hit, by the source's call. An excerpt; count on the stated rates, not on these rows.

Molecule	VACV E9 pol inh
CNC(=O)CC1Nc2ccccc2NC1=O (stereo unspecified)	102.7
Cn1nc(C(C)(C)C)cc1C(=O)NCc1ccc(-c2cccs2)cc1	101.2
CC1(C)CN(c2ccc(Cl)cn2)C1=O	80.6
COc1ccc(NC(=O)c2cccnc2SC)cc1	101.7
OC1/C(=C/c2ccccc2C(F)(F)F)N2CCC1CC2 (stereo unspecified)	96.4
CCc1cccc(C)c1NC(=O)COC(=O)C1CC(=O)N(c2ccc(OC(C)C)cc2)C1 (stereo unspecified)	103.7
CC(C)N(CCC(C(N)=O)(c1ccccc1)c1ccccn1)C(C)C (stereo unspecified)	100.7
CCOc1ccc(/C=C2\CC/C(=C\c3ccc(OCC)cc3)C2=O)cc1	84.5

Given with each value named: entries from further up
CNC(=O)CC1Nc2ccccc2NC1=O (stereo unspecified)
  VACV E9 pol inh: 102.7

Cn1nc(C(C)(C)C)cc1C(=O)NCc1ccc(-c2cccs2)cc1
  VACV E9 pol inh: 101.2

Next section:
Molecule	VACV E9 pol inh
CC(C)(C)c1ccc(-c2[nH]nc(NC(=O)c3ccccc3Cl)c2Br)cc1	96.7
COc1ccc(-c2c(-c3ccc(OC)c(OC)c3)c(C)n(C)c2C)cc1OC	98.6
CSc1ccc(CCNC(=O)c2ccc3snnc3c2)cc1	102.7
CCOc1ccc(-n2nnnc2SCC(=O)c2c(C)cc(C)cc2C)cc1	100.7
CC(NC(=O)c1ccc(C#N)cc1)C(c1cccs1)N1CCCC1 (stereo unspecified)	100.5
CCC(Cc1ccccc1)NC(=O)Cn1c(=O)oc2cc(S(=O)(=O)NCc3ccccc3)ccc21 (stereo unspecified)	105.3
CC(C)(C)C(=O)CSc1ncccn1	111.1
O=c1[nH]c(=O)n(-c2ccccc2)c2c1C(C(F)(F)F)(C(F)(F)F)N=C(c1ccncc1)N2	100.0
COc1ccc(OC)c(/C=N/c2sc3c(c2C#N)CCC3)c1	101.3
CC1=C(C(=O)Nc2ccccc2)C2(CCCCC2)C(C#N)=C(SCC(=O)Nc2nccs2)N1	94.8
C(=Nc1ccc2c(c1)OCCOCCOCCO2)c1c[nH]c2ccccc12	100.5
COc1ccc(Sc2cccs2)cc1	98.2
C=CCc1ccccc1OCC(O)Cn1c(C)nc2ccccc21 (stereo unspecified)	101.0
Cc1ccc(N=Cc2c(O)cc(C)oc2=O)cc1	97.9
CCc1c(C)c(C#N)c2nc3ccccc3n2c1Nc1ccncc1	96.5
Oc1c(C=Nc2ccc(Br)cc2)sc2ccccc12	98.4
Cc1ccc(NC(=O)C2(NC(=O)c3ccc(-n4cnnn4)cc3)CCCCC2)cc1	100.2
CCc1ccccc1NC(=O)C1CCCN(c2nnc(-n3cccc3)s2)C1 (stereo unspecified)	92.9
COc1ccc(N2CCN(C(=O)CCNS(=O)(=O)c3ccc(Br)s3)CC2)cc1	99.0
CCCC[n+]1cc(-c2ccccc2)nc(N2CCCCC2)n1	100.9
O=C(CSc1nc(-c2ccco2)cc(C(F)(F)F)n1)N(Cc1ccccc1)Cc1ccccc1	98.8
CCCCC(=O)Oc1cc(-c2ccccc2)c2oc(=O)sc2c1	100.4
O=C(OC1CCCCC1=O)c1ccc(O)cc1 (stereo unspecified)	92.2
COc1cc2c(cc1OC)CN(CCC(=O)O)CC2	97.7
CC(C)(C)c1cn(-c2ccc(F)cc2)c(=S)[nH]1	101.2
O=C(CSC(=S)N1CCSCC1)c1ccccc1	99.8
COc1ccccc1CNC(=O)C1CCCN(S(=O)(=O)c2ccc(C)cc2)C1 (stereo unspecified)	100.7
O=S(=O)(c1cccc(Cl)c1)N1CCc2ccccc2C1	102.3
CCOC(=O)c1cc(C(C)(C)C)n(-c2ccc(N3CCOCC3)cc2)c1C	99.2
CN(C(=O)c1ccccc1NS(=O)(=O)c1ccc(F)cc1)C1CCCCC1	93.3
Brc1ccc(-n2nnnc2/C=C/N2CCCC2)cc1	107.6
O=C(NCCO)c1ccc(CSc2nc3ccccc3c(=O)[nH]2)cc1	98.7
CCN(C(=O)Cn1nnc(-c2ccc3c(c2)OCO3)n1)c1ccccc1	100.7
CCCCn1c2c(c3ccccc31)CCc1nonc1-2	99.9
CSC1=NCN(CCCO)CN1	102.6
C=CCN(CC=C)C(=O)CSc1ccc2ccccc2c1	84.8
CCCNC(=O)c1cc(-c2ccco2)on1	104.0
CN(C)CCN(C(=O)c1ccc(Br)cc1)c1nc2ccc(Cl)cc2s1	101.8
O=C(c1cnn2ccccc12)N1CCCc2ccccc21	103.5
CC(=O)OC1CCC(C(=O)O)CC1 (stereo unspecified)	100.4
COc1cccc(-c2noc(-c3cccnc3)n2)c1	102.2
CC(=O)OC1CN2CCC1CC2 (stereo unspecified)	98.3
Cc1ccc(CNC(=O)C2CC(=O)N(CCC(C)C)C2)cc1 (stereo unspecified)	101.8
COc1ccc2ccc(OC)c(/C=C3\NC(=S)N(C)C3=O)c2c1	99.8
C/C(=N\n1cnnc1)c1ccc(O)cc1	98.4
Cc1ccn2c(NC(=O)C3CC3)c(-c3ccccc3)nc2c1	94.5
O=C1OC(c2ccc(Cl)cc2)=N/C1=C\c1ccccc1	99.9
O=C(c1ccccc1)N1N=C(c2ccccc2)CC1c1ccc2nccnc2c1 (stereo unspecified)	100.2
COc1ccc(NC(=O)N2CCc3cc(OC)c(OC)cc3C2c2ccccc2)cc1 (stereo unspecified)	100.9
On1c(-c2ccc(Cl)cc2)nc2ccc(Cl)cc21	104.4
COC(=O)CSc1nc2ccccc2n1-c1ccc(C)cc1	98.9
CCSC1=C(C#N)C(c2cccc(Cl)c2Cl)CC(=O)N1 (stereo unspecified)	100.9
CN1C(=O)/C(=C\C=C\c2ccc(N(C)C)cc2)SC1=S	100.1
COC(C(=O)O)C(=O)Nc1cc(Cl)cc(Cl)c1 (stereo unspecified)	102.4
CN(C)CN1C(=O)C(=Nc2ccc3ccccc3c2)c2ccccc21	100.5
Cc1ccc(Cn2c(-c3cscn3)nc3ccccc32)cc1	96.9

(more compounds)
Molecule	VACV E9 pol inh
O=C(COC(=O)Cc1ccc(Cl)cc1)Nc1ccccc1	104.2
CCC(C(=O)NC(C)C)n1c2ccccc2c2nc(=O)cc(C)n21 (stereo unspecified)	101.5
CCOC(=O)c1c(C)n(CC)c2ccc(O)cc12	100.7
Cc1cc(SCCC(=O)O)nc2c(C)cccc12	95.6
O=C(Nc1nccs1)c1ccccc1-c1ccccc1	100.3
CCCOc1ccccc1N1C(=O)CC(N(O)c2ccccc2)C1=O (stereo unspecified)	90.9
Oc1c(C=NC2CCCCC2)[nH]c2ccc(Br)c(Cl)c12	99.4
CC12CC(c3cc(Br)cc(Br)c3O1)C(C(=O)c1ccccc1)C(=O)N2 (stereo unspecified)	101.4
COC(=O)C1=NN(c2ccccc2)C2C(=O)N(c3ccccc3OC)C(=O)C12 (stereo unspecified)	104.8
N#CC(C#N)=C(Nc1ccccc1Cl)SCc1cccc(F)c1	25.8*
COC(=O)c1cc2oc3ccccc3c2n1Cc1nc(-c2ccccc2)oc1C	101.1
O=C(N/C=C\n1cnc2cc(C(F)(F)F)ccc21)c1cc2c(s1)CCC2	95.8
COc1ccccc1N1CCN(CCCNC(=O)c2nnc(Cc3ccccc3Cl)o2)CC1	84.0
COC(=O)c1ccc2nc[nH]c2c1	93.6
Cc1ccc(S(=O)(=O)N2CCCC(n3cccc3)C2)cc1 (stereo unspecified)	117.0
Cc1cc(N2C(=O)c3c(c(C)n(C)c3C)C2C(=O)NC2CCC(C)CC2)ccc1Br (stereo unspecified)	108.6
O=C(/C=C/c1ccco1)OCc1c(Cl)cccc1Cl	95.8
O=C(NCc1ccc(S(=O)(=O)NCc2ccccc2)s1)c1ccccc1	101.4
COc1cc(Br)c(CC(=O)N2CCOCC2)cc1OC	100.5
COc1cc(C2=NOC(=O)/C2=C\c2ccc(Cl)cc2Cl)cc(OC)c1OC	96.7
COc1cc(/C=C2\CCc3ccccc3C2=O)ccc1OCCC(C)C	102.7
Cn1nc(NC(=O)C2CCC2C(=O)O)c2c(F)cccc21 (stereo unspecified)	99.8
CCN(CC)CCn1c(SCC(=O)Nc2cccc(OC)c2)nc2c(sc3ccccc32)c1=O	101.7
CC(C)S(=O)(=O)c1csc(C(=O)NN)c1Cl	108.5
Cc1cc(Oc2ccc(=O)n(C)n2)nc(SCC(N)=O)n1	105.1
CC(C)(C)c1ccc(C(=O)Nc2cccc(-c3cn4cccnc4n3)c2)cc1	101.8
COc1ccc(-c2cn(-c3ccc(Br)cc3)c(=O)[nH]2)cc1	101.0
CCc1[o+]c(-c2ccc(OC)cc2)cc2cc(OC)c(OC)cc12	99.6
c1ccc(-c2nc(C34CC5CC(CC(C5)C3)C4)co2)cc1	99.1
COc1ccc(C#N)cc1Br	85.4
CCn1cc(C(=O)O)c(=O)c2cnc(N3CCCC3)nc21	100.4
CCn1cc(C(=O)O)c(=O)c2cc3c(cc21)OCO3	98.0
CCN1CC(C)C(O)(c2ccccc2)CC1C (stereo unspecified)	94.4
CCCC(CCC)C(=O)NC1CCN(Cc2ccccc2)CC1	93.4
CC(C)c1ccc(C2C3=C(CCCC3=O)NC3=C2C(=O)c2ccccc23)cc1 (stereo unspecified)	99.7
COc1ccc(OCc2nnc(N)s2)cc1	101.6
COc1ccc(CCNC(=O)CC(c2ccccc2)c2cc(Br)ccc2O)cc1OC (stereo unspecified)	100.5
C=C(C)CC(Nc1ccc(C)cc1)c1ccco1 (stereo unspecified)	101.5
Cc1cc2c(NC(=O)COCC(=O)O)cccc2nn1	89.9
C1=C(c2ccccc2)Nc2ncnn2C1c1cccs1 (stereo unspecified)	94.3
Oc1ccccc1/C=N/[n+]1ccccc1	100.6
O=C(NCCN1C(=O)C2C3C=CC(C3)C2C1=O)Nc1cccnc1 (stereo unspecified)	101.0
CCC1CCCCN1C(=O)CSc1ccc(C)cc1 (stereo unspecified)	101.5
O=C(CSc1ncnc2c1oc1ccccc12)N1CCCCC1	98.7
Cc1noc(/C=C/N(C)C)c1S(=O)(=O)N(C)Cc1ccccc1	102.2
O=C(Nc1cc(C(=O)Nc2ccccc2O)cc(C(=O)Nc2ccccc2O)c1)c1ccccc1	100.5
CC(C)NCC(O)c1ccc2ccccc2c1 (stereo unspecified)	100.2
CCCOC(=O)c1cc2ccccc2oc1=O	100.1
Cc1cc(OC(=O)CNC(=O)OCc2ccccc2)cc2oc(=O)c3ccccc3c12	96.6
Cc1ccc(Cc2c(C)nc3c(C(=O)NC4CCCC4)cnn3c2C)cc1	105.5
CNC(=O)c1ccc(Oc2ccc(C(=O)NC)cc2)cc1	100.2
CCC(=O)c1cn(CC(=O)N2CCCC2)c2ccccc12	99.5
Cc1ccc(CNC(=O)CCS(=O)(=O)c2ccc(Br)s2)cc1	98.0
Clc1ccc(C2C=C(c3cccs3)Nc3ncnn32)cc1 (stereo unspecified)	100.4
Cc1[nH]n(-c2ccccc2)c(=O)c1C=Nc1ccc(S(=O)(=O)N=C(N)N)cc1	100.1
CCCCc1ccc(NC(=O)CC#N)cc1	94.4

More results.
Molecule	VACV E9 pol inh
COc1ccc(S(=O)(=O)NCc2ccccn2)cc1	101.4
Nc1ccc2nc(C(F)(F)F)[nH]c2c1	94.4
C=C(C)C(=O)Nc1ccc(Oc2ccccc2F)nc1	107.7
CC1(C)CC(=O)c2c(oc3ccc(NS(=O)(=O)c4ccc5ccccc5c4)cc23)C1	98.2
CCOc1ccc(CC(=O)Nc2ccccc2)cc1OCC	100.6
COc1cc(SC#N)ccc1O	96.9
S=c1nc(-c2ccco2)n(Cc2ccccc2)c(=S)n1C(=NCc1ccccc1)c1ccco1	89.1
COC(=O)c1cc2ccccc2c(-c2c(O)ccc3ccccc23)c1O	101.7

Copied from the list.
`COc1ccc(S(=O)(=O)NCc2ccccn2)cc1` in VACV E9 pol inh shows 101.4
`C=C(C)C(=O)Nc1ccc(Oc2ccccc2F)nc1` in VACV E9 pol inh shows 107.7
`CCOc1ccc(CC(=O)Nc2ccccc2)cc1OCC` in VACV E9 pol inh shows 100.6
`COC(=O)c1cc2ccccc2c(-c2c(O)ccc3ccccc23)c1O` in VACV E9 pol inh shows 101.7
`COc1cc(SC#N)ccc1O` in VACV E9 pol inh shows 96.9
`CC1(C)CC(=O)c2c(oc3ccc(NS(=O)(=O)c4ccc5ccccc5c4)cc23)C1` in VACV E9 pol inh shows 98.2

Other records follow:
Molecule	VACV E9 pol inh
CCOC(=O)Cc1[nH]nc2c1C(c1ccc(Cl)cc1)C(C#N)=C(N)O2 (stereo unspecified)	107.8
CCOC(=O)c1ccccc1NC(=O)C12CC3CC(CC(C3)C1)C2	99.8
CC(=O)Nc1nc2nc(C(F)(F)F)cc(=O)n2[nH]1	105.6
Cc1c(NC(=O)Nc2ccccc2)sc2nc(-c3ccc(Cl)cc3)nn12	100.1
CC1CC2c3cccc(C(=O)O)c3C(=O)N2c2ccc(Cl)cc21 (stereo unspecified)	101.2
COc1ccc(C(=O)NCCn2cc(SCC(=O)Nc3ccccc3)c3ccccc32)cc1	102.2
CCN(CC)S(=O)(=O)c1cccc(C(=O)O)c1	99.3
FC(F)(F)c1ccnc(NCCNC(=S)NCc2ccco2)n1	96.3
O=C(O)c1sccc1S(=O)(=O)Nc1ccccc1N1CCOCC1	105.8
CC1Oc2ccccc2OC1C(=O)N1CCOCC1 (stereo unspecified)	93.2
COCC(C)n1c(C)ccc1C (stereo unspecified)	94.1
O=C(OCc1ccco1)c1cccnc1Cl	102.5
CCCCn1c(CCCNC(=O)C(C)C)nc2ccccc21	98.5
COc1cc(N2C(=O)c3ccccc3C2=O)nc(OC)n1	100.1
CC(C)OC(=O)c1ccc2[nH]c3c(c2c1)CCCC3	103.3
CC(C)CCn1c(CNC(=O)c2ccccc2)nc2ccccc21	93.9
CC1CCN(S(=O)(=O)c2ccc(-c3csc(-c4cccnc4)n3)cc2)CC1	97.4
COC(=O)CC1Oc2ccccc2N(Cc2ccc(C)cc2)C1=O (stereo unspecified)	100.7
CN1C(c2ccccc2)=CC(c2ccccc2)n2ncnc21 (stereo unspecified)	93.7
